Screening data as filed in PubChem.
A488 autofl = qHTS Assay for Spectroscopic Profiling in A488 Spectral Region; max dye equivalency, M; 0.1% of 59,000 active; compound autofluorescence, A488 spectral region, dye equivalency; hits give high values; active = above 10 nM dye equivalent; inconclusive = 1 to 10 nM; inactive = 1 nM or less; about half of its hits are not listed in these tables;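 also: highest value over a series up to 38 µM; compound alone in buffer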
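Autofluorescence read at ex 480/em 540 nm after 15 min RT in 100 mM Tris pH 8.0; compound signal normalized to A488 standard series on each plate, reported as dye-equivalent concentration at each test concentration.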
A647 fluor = qHTS Assay for Spectroscopic Profiling in A647 Spectral Region. max dye-equivalent concentration, M. 59,000 tested, under 10 active. Compound fluorescence, A647 channel (570/671 nm), Tris buffer; active means above 1 µM dye equivalent; inconclusive means 0.1 to 1 µM; inactive means 0.1 µM or less;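 also: values scaled relative to a standard on each plate; highest value over a series up to 38 µM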
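Each compound's intrinsic fluorescence at 570 nm excitation and 671 nm emission is measured across its concentration series in 100 mM Tris, pH 8.0, after 15 min at room temperature, and reported relative to an A647 curve.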
Resorufin autofl = qHTS Assay for Spectroscopic Profiling in Resorufin Spectral Region | Compound fluorescence, resorufin region 547/598 nm, buffer; hits give high values | max dye-equivalent concentration, M | 0.04% of 59,000 active; active = above 10 nM dye equivalent; inconclusive = 1 to 10 nM; inactive = 1 nM or less; a few of its hits are not listed in these tables; also: highest value over a series up to 38 µM
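Dye-equivalent concentration values derive from comparing each well's 547/598 nm fluorescence against resorufin standards included on every plate. Incubation was 15 min at room temperature in 100 mM Tris, pH 8.0.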
AID923 = qHTS Assay for Allosteric/Competitive Inhibitors of Caspase-1: Spectroscopic Profiling in AFC Spectral Region | compound fluorescence, AFC spectral region (405/520 nm); almost no hit is shown here | Potency, µM (top dose mostly 57.5 µM), inactives show at the highest dose fluorescence increase, most hits filed as activators | 1.1% of 75,000 active; active = well fitted activation curve with a large enough effect; inconclusive = small, poorly fitted or top-dose-only effect;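 also: potency is read from the fitted curve at half-maximal effect; 0% is about no effect; scaled to a free AFC standard on each plate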
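Titrations up to 57 uM read every 20 sec for 3 min (405/520 nm) with 50 nM caspase 1 and 5 uM Ac-WEHD-AFC, pH 7.5 HEPES buffer. Fluorescence-vs-time intercept gave baseline, scaled against on-plate AFC standard.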
TSHR agonist = qHTS Assay for Agonists of the Thyroid Stimulating Hormone Receptor; Potency, µM (top dose mostly 57.1 µM), for inactives: top-dose activation, usual class: activators; AID 926, 2007; HEK293-CNG-TSHR cells (CNG channel as cAMP sensor), membrane potential dye, cAMP; Thyrotropin receptor (Homo sapiens), P16473; 0.48% of 73,000 active; active = well fitted activation curve of enough size with the parental cells flat; inconclusive = any curve in the parental cells; inactive = parental cells flat and receptor cells flat or falling; also: potency is read from the fitted curve at half-maximal effect; % of control where 0% means no effect; weak receptor curves with flat parental cells got no call and are not listed
Target sequence (P16473 whole entry, looked up): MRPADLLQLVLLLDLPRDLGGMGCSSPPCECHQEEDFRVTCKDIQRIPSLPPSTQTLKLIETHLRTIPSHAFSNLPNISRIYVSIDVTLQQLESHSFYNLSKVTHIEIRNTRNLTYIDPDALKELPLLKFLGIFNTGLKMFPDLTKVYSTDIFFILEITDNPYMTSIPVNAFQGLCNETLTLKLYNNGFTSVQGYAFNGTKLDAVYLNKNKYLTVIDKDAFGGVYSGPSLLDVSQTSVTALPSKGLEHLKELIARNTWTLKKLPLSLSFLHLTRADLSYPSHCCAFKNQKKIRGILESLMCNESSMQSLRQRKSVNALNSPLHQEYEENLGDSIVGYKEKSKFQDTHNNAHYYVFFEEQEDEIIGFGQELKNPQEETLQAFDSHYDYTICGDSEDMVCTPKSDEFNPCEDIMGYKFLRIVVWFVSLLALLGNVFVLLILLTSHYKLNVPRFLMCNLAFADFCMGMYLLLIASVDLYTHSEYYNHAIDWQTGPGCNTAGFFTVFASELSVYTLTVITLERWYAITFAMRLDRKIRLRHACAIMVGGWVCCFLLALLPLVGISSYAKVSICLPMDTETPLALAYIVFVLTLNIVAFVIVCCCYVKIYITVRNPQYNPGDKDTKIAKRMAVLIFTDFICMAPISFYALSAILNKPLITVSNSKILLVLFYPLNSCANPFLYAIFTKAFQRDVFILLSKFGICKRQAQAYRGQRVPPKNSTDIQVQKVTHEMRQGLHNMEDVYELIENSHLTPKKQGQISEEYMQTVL
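HEK 293 cells stably expressing TSHR and a cAMP-gated CNG channel; parental CNG-only cells as counterscreen. Cells preloaded 60 min with membrane potential dye plus 100 uM RO 20-1724, then compound 30 min; fluorescence read at 590 nm.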
* hit, by the source's call; & = joins results of further samples; [ ] = dose if it differs, or a comment.

What do the screens show for `O=C(Cc1ccccc1)OC(COCc1ccccc1)CN1CCOCC1` (configuration not stated)?
A488 autofl: inactive; A647 fluor: 3.4e-09; Resorufin autofl: inactive; AID923: 2.1%; TSHR agonist: 22.9%

What do the screens show for `Cc1ccc(-n2c(O)c(C=NC3CCCCC3N)c(=O)[nH]c2=O)cc1C` (configuration not stated)?
A488 autofl: inactive; A647 fluor: 2e-09; Resorufin autofl: inactive; AID923: -0.4%; TSHR agonist: 9.3%

How did CC(C)CCON=O do in these assays?
AID923: 2.2%; TSHR agonist: -9.1%

What do the screens show for `CC(=O)Nc1ccc(OC(=O)N2CCCCC2)cc1`?
A488 autofl: inactive; A647 fluor: 2.45e-08; Resorufin autofl: inactive; AID923: 0.5%; TSHR agonist: 0.6%

What do the screens show for `CN(C)C1=C(C#N)C(c2ccccc2)=NP(N(C)C)(N(C)C)=N1`?
A488 autofl: inactive; A647 fluor: 5.8e-09; Resorufin autofl: inactive; AID923: -1.4%; TSHR agonist: 5.3%

Results for CCSc1nnc([C@@H](N)Cc2c[nH]c3ccccc23)o1 ?
A488 autofl: inactive; A647 fluor: 2.06e-08; Resorufin autofl: inactive; AID923: 1.0%; TSHR agonist: inconclusive

What do the screens show for `CN1CCc2nc(SCC(=O)OC(C)(C)C)c(C#N)cc2C1`?
A488 autofl: inactive; A647 fluor: 9.58e-08; Resorufin autofl: inactive

Results for O/N=C1\CCC2CN(C3CCCCC3)CC2C1 (configuration not stated) ?
AID923: 8.9%; TSHR agonist: -0.5%

Results for ClC=CCl ?
AID923: 1.9%; TSHR agonist: -4.4%

How did O=C(CN1CCOCC1)c1ccc2cc[nH]c2c1 do in these assays?
AID923: 6.3%; TSHR agonist: 0.5%

What do the screens show for `Cc1cc(NC(=O)CCC(=O)N2CCC3(CC2)OCCO3)no1`?
A488 autofl: inactive; A647 fluor: 2.48e-08; Resorufin autofl: inactive; AID923: 2.6%; TSHR agonist: -8.1%

How did CCCOC(=O)[C@@H]1[C@@H](C(=O)O)[C@H]2CC[C@@H]1O2 do in these assays?
A488 autofl: inactive; A647 fluor: 5.7e-09; Resorufin autofl: inactive; AID923: 1.3%[11.5 µM]; TSHR agonist: -0.3%[11.4 µM]

What do the screens show for `N#CC1=C(N)Oc2n[nH]c(-c3cccs3)c2C1c1ccsc1` (configuration not stated)?
A488 autofl: inactive; A647 fluor: 2.23e-08; Resorufin autofl: inactive; AID923: 0.6%; TSHR agonist: inconclusive

Results for CCCCCCC[n+]1ccc(-c2cc[n+](CCCCCCC)cc2)cc1 ?
AID923: -1.1%; TSHR agonist: -3.6%

What do the screens show for `O=C(CN1CC(c2ccccc2)CC1=O)NCc1ccc(F)cc1` (configuration not stated)?
AID923: 1.3%; TSHR agonist: -3.8%

Results for Oc1ccc(Cl)c(Cl)c1 ?
AID923: -0.6%; TSHR agonist: -1.7%

What do the screens show for `C=CCN=C=S`?
AID923: 2.6%; TSHR agonist: inconclusive

Results for C[C@@H](Cc1ccccc1)NCCC(c1ccccc1)c1ccccc1 ?
A488 autofl: inactive; A647 fluor: 3.94e-08; Resorufin autofl: inactive; AID923: -2.8%[25.7 µM]

What do the screens show for `CC(C)(C)P(=O)(c1ccncc1)N1CCCC1` (configuration not stated)?
A488 autofl: inactive; A647 fluor: 4.4e-09; Resorufin autofl: inactive; AID923: -0.7%; TSHR agonist: -13.0%

How did CC(C)Br do in these assays?
AID923: -1.6%; TSHR agonist: -2.1%

How did CCn1cc(C(=O)O)c(=O)c2cc(F)c(N3CCNCC3)cc21 do in these assays?
A488 autofl: inactive; A647 fluor: 3.41e-08&3.4e-09; Resorufin autofl: inactive; AID923: 0.1%; TSHR agonist: inconclusive

How did O=C(c1cc(-c2ccncc2)nc2ccccc12)N1CCC2(CC1)OCCO2 do in these assays?
A488 autofl: inactive; A647 fluor: 4.41e-08; Resorufin autofl: inactive; AID923: 1.0%

Results for CCc1ccc(CCN2CCCCC2)nc1 ?
A488 autofl: inactive; A647 fluor: 1.17e-08; Resorufin autofl: inactive; AID923: -0.7%[11.5 µM]; TSHR agonist: -1.5%[11.4 µM]

Results for CC[C@@H]1CN2CC[C@@H]1C[C@H]2[C@@H](O)c1ccnc2ccc(OC)cc12 ?
A488 autofl: inactive; A647 fluor: 6.9e-09; Resorufin autofl: inactive; TSHR agonist: inconclusive

What do the screens show for `COc1ccc(-n2c(O)c(C(C)=NCc3ccco3)c(=O)[nH]c2=O)cc1`?
A488 autofl: inactive; A647 fluor: 1.5e-08; Resorufin autofl: inactive; AID923: 1.2%; TSHR agonist: 5.8%

How did CCOC(=O)C(O)(c1ccc(N)c(OC)c1)C(F)(F)F (configuration not stated) do in these assays?
A488 autofl: inactive; A647 fluor: 3.08e-08; Resorufin autofl: inactive; AID923: -1.1%; TSHR agonist: 1.4%

What do the screens show for `O=C(c1cc(-c2cccnc2)nc2ccccc12)N1CCC2(CC1)OCCO2`?
A488 autofl: inactive; A647 fluor: 2e-09; Resorufin autofl: inactive; AID923: -2.6%; TSHR agonist: -2.1%

Results for c1ccc2cc3c(cc2c1)-c1cccc2cccc-3c12 ?
AID923: inconclusive; TSHR agonist: inconclusive

What do the screens show for `CC(=O)c1c(O)c(C)c(O)c(Cc2c(O)c3c(c(C(=O)/C=C\c4ccccc4)c2O)OC(C)(C)C=C3)c1O`?
A488 autofl: inactive; A647 fluor: 5.8e-09; Resorufin autofl: inactive; AID923: 3.2%; TSHR agonist: 16.5%&2.2%

How did Cc1cc(Br)ccc1N1C(=O)CC(=O)NC1=O do in these assays?
AID923: -1.7%; TSHR agonist: 15.8%[11.4 µM]

What do the screens show for `CN1CC[C@@H]2CN3CCc4cccc(c43)[C@H]2C1`?
AID923: -4.0%; TSHR agonist: 1.9%

What do the screens show for `ClC1=C(Cl)C2(Cl)C3C4CC(C5OC45)C3C1(Cl)C2(Cl)Cl` (configuration not stated)?
AID923: 0.5%; TSHR agonist: 25.1µM*

How did ClCCCCl do in these assays?
AID923: 0.1%; TSHR agonist: inconclusive

How did COC(=O)[C@H]1C[C@@H]1[C@H](NP(=O)(c1ccccc1)c1ccccc1)c1ccccc1 do in these assays?
AID923: -3.7%; TSHR agonist: inconclusive

Results for COc1ccc(C[C@@H](N)c2ccc(OC)cc2)cc1 ?
A488 autofl: inactive; A647 fluor: 3.1e-09; Resorufin autofl: inactive; AID923: -0.4%[11.5 µM]; TSHR agonist: 0.7%[11.4 µM]

How did O=C(CSc1nnc2c3c4c(sc3ncn12)CCCC4)NCc1ccco1 do in these assays?
A488 autofl: inactive; A647 fluor: 1e-09; Resorufin autofl: inactive; AID923: -1.0%; TSHR agonist: inconclusive

What do the screens show for `Nc1cc(Cl)cc(Cl)c1`?
AID923: 4.7%; TSHR agonist: 0.8%

Results for Cc1cnn(C2CCN(C)CC2)c1N ?
A488 autofl: inactive; A647 fluor: 2.81e-08; Resorufin autofl: inactive; AID923: -1.1%; TSHR agonist: -1.6%

Results for CN1CCN(c2ccc([N+](=O)[O-])c3[nH]o[n+](=O)c23)CC1 ?
A488 autofl: inconclusive; A647 fluor: 4.71e-08; Resorufin autofl: inactive; AID923: -0.5%[11.5 µM]

What do the screens show for `COc1ccccc1CN1CCCC2(CCN(C(=O)Oc3ccccc3)CC2)C1`?
A488 autofl: inactive; A647 fluor: 1.93e-08; Resorufin autofl: inactive; AID923: 0.4%; TSHR agonist: inconclusive

Two compounds picked at random from those above:
What do the screens show for `COc1ccc(-n2c(O)c(C(C)=NCc3ccco3)c(=O)[nH]c2=O)cc1`?
A488 autofl: inactive; A647 fluor: 1.5e-08; Resorufin autofl: inactive; AID923: 1.2%; TSHR agonist: 5.8%

How did ClCCCCl do in these assays?
AID923: 0.1%; TSHR agonist: inconclusive

More records:
What do the screens show for `S=C=S`?
AID923: 0.3%; TSHR agonist: 7.1%

Results for C=COC(C)=O ?
AID923: -1.0%; TSHR agonist: -1.5%

Results for O=C(CN1CCCC1=O)N1CCOCC1 ?
A488 autofl: inactive; A647 fluor: 1.3e-09; Resorufin autofl: inactive; AID923: -0.2%; TSHR agonist: -2.4%

Results for CC(=NCc1ccc2c(c1)OCO2)c1c(O)n(C)c(=O)n(C)c1=O ?
A488 autofl: inactive; A647 fluor: 1e-09; Resorufin autofl: inactive; AID923: -1.5%; TSHR agonist: 17.9%

How did CN1CCN(c2nccc3c2ncn3C)CC1 do in these assays?
A488 autofl: inactive; A647 fluor: 6.7e-09; Resorufin autofl: inactive; AID923: 0.7%; TSHR agonist: 3.8%

How did CC(Cl)Cl do in these assays?
AID923: -3.7%; TSHR agonist: inconclusive

How did COc1ccc(C[C@@H]2NC[C@H](O)[C@H]2OC(C)=O)cc1 do in these assays?
A488 autofl: inactive; A647 fluor: 4.6e-09; Resorufin autofl: inactive; TSHR agonist: -0.1%

How did c1ccc(C2CC2)c(OCC2=NCCN2)c1 do in these assays?
A488 autofl: inactive; A647 fluor: 1.6e-09; Resorufin autofl: inactive; AID923: 1.1%&-0.3%; TSHR agonist: 4.2%

Results for CON(C)C(=O)Nc1ccc(Cl)cc1 ?
A488 autofl: inactive; A647 fluor: 1e-09; Resorufin autofl: inactive; AID923: -0.6%; TSHR agonist: 3.9%

What do the screens show for `O=C(c1cc2ccccn2n1)N1CCC2(CC1)OCCO2`?
A488 autofl: inactive; A647 fluor: 1e-09; Resorufin autofl: inactive; AID923: 3.4%; TSHR agonist: 3.0%

How did Cc1cccc(NC2=NCCCS2)c1C do in these assays?
A488 autofl: inactive; A647 fluor: 1e-09; Resorufin autofl: inactive; AID923: 2.3%; TSHR agonist: 4.4%

How did COC(=O)c1c(C)[nH]c(C(=O)C(Cc2ccccc2)N(C)C)c1C (configuration not stated) do in these assays?
A488 autofl: inactive; A647 fluor: 5.63e-08; Resorufin autofl: inactive; AID923: -0.3%; TSHR agonist: -4.7%

How did S=C=Nc1cccc(C2(N3CCCCC3)CCCCC2)c1 do in these assays?
A488 autofl: inactive; A647 fluor: 2.1e-09; Resorufin autofl: inactive; AID923: -2.2%; TSHR agonist: 1.8%&-6.5%

Results for CC(C(N)=O)N1CC(c2ccccc2)CC1=O (configuration not stated) ?
A488 autofl: inactive; A647 fluor: 1.22e-08; Resorufin autofl: inactive; AID923: 1.0%; TSHR agonist: -4.5%

Results for O=c1c2ccccc2nc(CSc2ncnc3nc[nH]c23)n1-c1ccccc1 ?
A488 autofl: inactive; A647 fluor: 1e-09; Resorufin autofl: inactive; AID923: -2.6%; TSHR agonist: -0.3%

How did Oc1ccc2c3c1O[C@H]1c4c(c5ccccc5n4Cc4ccccc4)C[C@]4(O)[C@H](C2)N(CC2CC2)CC[C@@]314 do in these assays?
AID923: -4.0%; TSHR agonist: inconclusive

How did O=C(Oc1ccccc1)N1CCC2(CC1)CN(Cc1ccncc1)C2 do in these assays?
A488 autofl: inactive; A647 fluor: 1.02e-08; Resorufin autofl: inactive; AID923: -1.5%; TSHR agonist: 6.3%

What do the screens show for `CN[C@H]1[C@H](C)O[C@@H](O[C@@H]2C/C=C(/C)C/C(C)=C\C=C/CC[C@@H](C)CNC(=O)/C=C\C=C/[C@H]2C)C[C@@H]1O`?
A488 autofl: inactive; A647 fluor: 4.1e-09; Resorufin autofl: inactive; TSHR agonist: -0.7%[11.4 µM]

A draw from above in order of SMILES length, smallest number first.
What do the screens show for `S=C=S`?
AID923: 0.3%; TSHR agonist: 7.1%

Results for O=C(CN1CCCC1=O)N1CCOCC1 ?
A488 autofl: inactive; A647 fluor: 1.3e-09; Resorufin autofl: inactive; AID923: -0.2%; TSHR agonist: -2.4%

How did S=C=Nc1cccc(C2(N3CCCCC3)CCCCC2)c1 do in these assays?
A488 autofl: inactive; A647 fluor: 2.1e-09; Resorufin autofl: inactive; AID923: -2.2%; TSHR agonist: 1.8%&-6.5%

This is a subset (hit frequency here may not be typical).
